KCNQ2 enhance = potentiators of rat KCNQ2 potassium channel; Potassium voltage-gated channel subfamily KQT member 2 (Rattus norvegicus), O88943; CHO-K1 KCNQ2, FluxOR thallium flux fluorescence; hits give high values; B-score at 10 µM; hit rate 0.54% among 310,000; AID 2239, 2010;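 active = fluorescence ratio B-score at least 3 SD of library B-scores, with initial fluorescence B-score within 3 SD, cut at about 5.3 in these data; same plate scores as AID 2156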;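 note: B-score of peak minus minimum over baseline fluorescence ratio after K+ and Tl+ stimulus; positive B-score means potentiation of KCNQ2 with more thallium influx and brighter signal; only the inactives scoring about 0 or higher are listed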
Target sequence (O88943 whole entry, looked up): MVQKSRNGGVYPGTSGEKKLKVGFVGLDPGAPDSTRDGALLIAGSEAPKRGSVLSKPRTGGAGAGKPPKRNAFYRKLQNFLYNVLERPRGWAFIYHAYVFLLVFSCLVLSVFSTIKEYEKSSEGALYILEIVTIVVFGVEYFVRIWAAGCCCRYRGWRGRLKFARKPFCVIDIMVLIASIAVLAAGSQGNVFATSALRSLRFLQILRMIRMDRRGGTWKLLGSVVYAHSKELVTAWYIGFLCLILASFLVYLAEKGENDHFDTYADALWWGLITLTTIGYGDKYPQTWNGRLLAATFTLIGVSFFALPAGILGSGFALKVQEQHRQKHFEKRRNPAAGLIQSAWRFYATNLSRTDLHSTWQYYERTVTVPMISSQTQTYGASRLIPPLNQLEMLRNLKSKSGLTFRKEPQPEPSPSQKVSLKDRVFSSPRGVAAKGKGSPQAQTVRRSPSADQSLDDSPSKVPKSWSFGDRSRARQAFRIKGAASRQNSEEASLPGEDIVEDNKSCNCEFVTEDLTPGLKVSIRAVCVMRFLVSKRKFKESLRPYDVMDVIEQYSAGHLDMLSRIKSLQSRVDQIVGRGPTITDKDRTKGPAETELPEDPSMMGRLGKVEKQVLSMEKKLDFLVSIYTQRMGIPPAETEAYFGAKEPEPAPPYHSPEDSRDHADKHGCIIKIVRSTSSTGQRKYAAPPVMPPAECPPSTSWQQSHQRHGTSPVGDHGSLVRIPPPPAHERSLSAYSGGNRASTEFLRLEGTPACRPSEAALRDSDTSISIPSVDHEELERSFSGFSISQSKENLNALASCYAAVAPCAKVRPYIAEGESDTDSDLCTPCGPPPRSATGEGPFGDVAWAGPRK
KCNQ2 enhance baseline = further read-out of KCNQ2 enhance, marked with its call; B-score; compound at 10 µM; measured here: initial fluorescence intensity artifact check;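 brightness before thallium and not channel activity; 0 = typical well and far values either way flag optical interference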
Active calls of the source: *. Some of the compounds tested; rates above refer to the full screens.

SMILES	KCNQ2 enhance	KCNQ2 enhance baseline
NS(=O)(=O)c1ccc(CNC(=O)Cc2ccc(S(=O)(=O)N3CCOCC3)s2)cc1	1.3	-1.7
Cc1ccc(NC(=O)NN(C)c2c(Cl)c(Cl)nn2C)cc1	0.4	-0.94
Cc1cccc(N2CCN(C(=O)CCc3nc4ccccc4[nH]3)CC2C)c1 (stereo not given)	0.05	-0.11
CS(=O)(=O)N(CC(=O)N1CCOCC1)c1ccccc1	0.37	2.5
Cc1cccc(NC(=O)c2ccc(-n3ccnc3)nc2)c1	0.39	-0.74
Cc1cc(Br)ccc1NC(=O)CCSc1ccccc1	2	0.02
S=c1[nH]c2cc3ccccc3cc2[nH]1	1.5	-0.29
COc1ccc(NC(=O)CCN2C(=O)c3cccc([N+](=O)[O-])c3C2=O)cc1	2.2	-2.1
CN(CC(=O)Nc1ccccc1C(F)(F)F)C(=O)c1cccc(-n2cccc2)c1	0.9	0.09
CN1C(=O)CS(=O)c2ccc(C(=O)NCCC3=CCCCC3)cc21 (stereo not given)	0.55	0.14
Cc1cc(C)c2c3c(cn2n1)c(=O)n(C)c(=O)n3C	0.59	-0.06
CCOC(=O)CCCCC(=O)c1[nH]c(=O)[nH]c1CSc1nc(C)cc(C)n1	0.96	-0.67
COc1ccc2[nH]c(C)c(CCNC(=S)Nc3ccccc3OC)c2c1	1.5	0.06
CCC(C)NC(=O)Nc1ccc2c(c1)N(C)C(=O)c1ccccc1S2 (stereo not given)	3.5	-0.47
CNC(=S)N=Nc1c(O)[nH]c2ccccc12	0.53	0.02
CNc1cc([N+](=O)[O-])ccc1OCc1ccccc1	0.27	0.31
COc1cc2c(cc1OC)C(C(=O)N1CCN(c3ccccn3)CC1)C(c1cccs1)N(C)C2=O (stereo not given)	0.27	-0.8
N/C(Cc1ccc([N+](=O)[O-])cc1)=N\OC(=O)c1ccccc1Br	1.6	-1.9
O=C(Nc1ccccc1Cl)c1ccn[nH]1	0.2	0.15
CN(C)Cc1c(O)ccc2c3c(c(=O)oc12)CCCCC3	0.02	0.68
Cc1ccc(SCC(=O)NC(C)(C)C)cc1	1.1	0.59
C(=N\N1CCN(C2c3ccccc3-c3ccccc32)CC1)/c1cccs1	0.46	-0.09
O=C(N/N=C/c1cccc([N+](=O)[O-])c1)C1CC(=O)N(c2ccc(Br)cc2)C1 (stereo not given)	0.47	-1.3
COCCOC(=O)C1=C(C)NC(=O)NC1c1c(Cl)nc2c(C)cccn2c1=O (stereo not given)	0.26	0.17
CC(=O)Nc1ccc(C(=O)NNC(=O)c2cccs2)cc1	1.7	-0.23
Nc1nnc(N2CCCCC2)s1	1.2	1.2
CCOc1ccccc1NC(=O)NC1(C(=O)N2CCOCC2)CCCCC1	1.3	0.04
COc1ccc(Cc2nc3ccc(C(=O)N4C[C@@H](C)O[C@@H](C)C4)cc3o2)cc1OC	0.36	-1.8
CN(C)/C=C1\N=C(c2cccs2)OC1=O	0.42	1.5
Cc1occc1C(=O)N/N=C/c1ccc(Br)s1	0.82	-1.1
CCOC(=O)c1sc2nc3c(cc2c1N)COC(C)(CC)C3 (stereo not given)	1	0.99
O=c1[nH][nH]cc1C=Nc1ccccc1Cl	1.1	-0.81
CCOc1ccc(OCCOc2cccc(C(F)(F)F)c2)cc1	1.2	-0.88
CNC(=O)COC(=O)/C=C/c1c(C)nn(-c2ccccc2)c1C	0.84	1.4
CN1CCN(C(=O)c2ccc(COc3ccc(C(C)(C)C)cc3)o2)CC1	2	-2.4
Cc1ccn(C(=O)c2cc3cc(Cl)ccc3oc2=O)n1	0.13	0.33
COc1ccc(C2C(C(C)=O)=C(O)C(=O)N2C)c(OC)c1 (stereo not given)	0.7	0.68
Cc1cc(C)n2nc(C(=O)N(C)c3c(N)n(Cc4ccccc4)c(=O)[nH]c3=O)nc2n1	0.57	-1.2
O=C(CSc1nc2c(cnn2-c2ccc(F)cc2)c(=O)[nH]1)Nc1nccs1	0.58	0.08
C/C(Cl)=C\COc1cc(C)nc2c(Br)cccc12	0.01	-0.52
COc1ccccc1NC(=O)CCn1c(=S)oc2ccccc21	0.9	0.03
CCC1(C)Cc2ccccc2-c2[nH]c(=S)[nH]c(=O)c21 (stereo not given)	1.2	-3.4
O=C(COc1ccc(Cl)cc1)Nc1ccc(NC(=O)c2ccco2)cc1	2.1	-0.05
COc1ccc(C2=NOC(C(=O)Nc3cccnc3Cl)C2)cc1 (stereo not given)	0.47	-1.3
Cc1ccsc1C(=O)N[C@@H](C)c1nnc2ccccn12	1.3	0.71
Cc1cc(C(=O)OCC(=O)Nc2c(Cl)cccc2C(F)(F)F)c(C)o1	0.39	0.24
O=C(NCc1ccccc1Cl)c1ccc(Cn2cc(C(F)(F)F)ccc2=O)cc1	0.03	0.06
COc1ccc(C(C)C)cc1S(=O)(=O)N1CCC(C(=O)NCc2cccnc2)CC1	1.1	-0.18

14 neighbouring entries already listed, quoted:
SMILES	KCNQ2 enhance	KCNQ2 enhance baseline
O=c1[nH][nH]cc1C=Nc1ccccc1Cl	1.1	-0.81
CCOc1ccc(OCCOc2cccc(C(F)(F)F)c2)cc1	1.2	-0.88
CNC(=O)COC(=O)/C=C/c1c(C)nn(-c2ccccc2)c1C	0.84	1.4
CN1CCN(C(=O)c2ccc(COc3ccc(C(C)(C)C)cc3)o2)CC1	2	-2.4
Cc1ccn(C(=O)c2cc3cc(Cl)ccc3oc2=O)n1	0.13	0.33
COc1ccc(C2C(C(C)=O)=C(O)C(=O)N2C)c(OC)c1 (stereo not given)	0.7	0.68
Cc1cc(C)n2nc(C(=O)N(C)c3c(N)n(Cc4ccccc4)c(=O)[nH]c3=O)nc2n1	0.57	-1.2
O=C(CSc1nc2c(cnn2-c2ccc(F)cc2)c(=O)[nH]1)Nc1nccs1	0.58	0.08
C/C(Cl)=C\COc1cc(C)nc2c(Br)cccc12	0.01	-0.52
COc1ccccc1NC(=O)CCn1c(=S)oc2ccccc21	0.9	0.03
CCC1(C)Cc2ccccc2-c2[nH]c(=S)[nH]c(=O)c21 (stereo not given)	1.2	-3.4
O=C(COc1ccc(Cl)cc1)Nc1ccc(NC(=O)c2ccco2)cc1	2.1	-0.05
COc1ccc(C2=NOC(C(=O)Nc3cccnc3Cl)C2)cc1 (stereo not given)	0.47	-1.3
Cc1ccsc1C(=O)N[C@@H](C)c1nnc2ccccn12	1.3	0.71

Next section.
SMILES	KCNQ2 enhance	KCNQ2 enhance baseline
O=S(=O)(NCc1ccccc1)c1ccc(F)cc1Br	0.02	1.4
Cc1cc(OCCOCCNC(C)C)cc(C)c1Cl	2.4	-0.21
CCN(CC)c1ccc(NC(=O)COC(=O)c2cccs2)cc1	1.8	-1.2
O=C1N(c2ccccc2)C[C@@H]2C[C@@H](c3cccs3)N3CCC[C@@]123	0.02	-2.2
Cc1cccc(C)c1NC(=O)c1ccc2c(c1)CCN2S(C)(=O)=O	0.72	0.54
CCn1c(NC(=O)C(C)C)c2ccccc2nc1=O	0.35	0.99
O=C(Cc1ccc(NS(=O)(=O)c2ccc(F)cc2)cc1)NCc1cccnc1	0.14	-0.42
Cc1cnc(N2C(=O)c3ccc([N+](=O)[O-])cc3C2=O)s1	2	-0.05
S=c1[nH]c(-c2ccccc2)cn1/N=C/c1ccncc1	1.4	-0.34
Cc1ccc2c(c1)N(CC(=O)NCC1CCCO1)C(=O)C(C(C)C)O2 (stereo not given)	1	0.96
CC(C)CN(C(=O)CC(C)c1ccccc1)c1c(N)n(Cc2ccccc2)c(=O)[nH]c1=O (stereo not given)	0.62	-1.7
CCOc1ccc(S(=O)(=O)NC(C)C(=O)NCc2ccccn2)cc1 (stereo not given)	0.01	0

Whole records, looked up by structure. Order of screens: KCNQ2 enhance | KCNQ2 enhance baseline
O=C1N(c2ccccc2)C[C@@H]2C[C@@H](c3cccs3)N3CCC[C@@]123 is listed as 0.02 | -2.2
S=c1[nH]c(-c2ccccc2)cn1/N=C/c1ccncc1 is listed as 1.4 | -0.34

Continuation:
SMILES	KCNQ2 enhance	KCNQ2 enhance baseline
Cn1c(-c2ccccc2[N+](=O)[O-])[n+](C)c2ccccc21	0.05	-0.62
Cn1c(SCc2ccc(C(=O)Nc3nccs3)cc2)nnc1-c1ccccc1	0.42	-0.52
Cc1cccc(N2CCN(C(=O)CCN3C(=S)NC(C)(C)CC3C)CC2)c1C (stereo not given)	1.9	-1.2
CC(=O)OCCn1c(Br)nc2c1c(=O)[nH]c(=O)n2C	0.99	0
CCCCc1n[nH]c(=S)n1Cc1ccccc1	1.8	-0.09
O=C1CCCN1CCCN=c1c([N+](=O)[O-])nn(-c2ccc(Cl)cc2)n1O	0.61	-3.1
COc1ccc(Br)cc1/C=N/NC(=O)C(c1ccncc1)N1CCOCC1 (stereo not given)	0.05	-1.4
CC(=O)NC(c1cccc([N+](=O)[O-])c1)c1c(OC(C)=O)ccc2ccccc12 (stereo not given)	0.43	0.02
O=S1(=O)CCN(Cc2ccccc2C(F)(F)F)CC1	0.96	-0.68
COc1ccc(O)c(/C=N/NC(=O)CSc2nnc(C)n2-c2ccccc2)c1	0.49	-0.55
CN1CCN(CC(O)COC(c2ccc(Cl)cc2)c2ccc(Cl)cc2)CC1 (stereo not given)	0.05	-0.79
Cc1ccc(S(=O)(=O)N2CCN(CC(=O)Nc3ccc([N+](=O)[O-])cc3)CC2)cc1C	0.02	-2.9
O=C(CSc1n[nH]c(=O)[nH]c1=O)c1cccc([N+](=O)[O-])c1	3.1	-1.4
Cc1ccc(S(=O)(=O)N(CC(=O)NCCSC2CCCCC2)c2ccccc2F)cc1	0.88	-1.2
CCCCCSc1nc(N2CCOCC2)c2c(c1C#N)CC(C)(C)OC2	1.7	-1.5
C=CCN(CC=C)C(=O)c1ccc2nc(Cc3ccc(OC)c(OC)c3)oc2c1	1.3	-0.95
Cn1c(C2CC(=O)N(Cc3ccccc3)C2)nc2ccccc21 (stereo not given)	1.5	1.5
CCCC(C)c1nnc(NC(=O)C(=O)OCC)s1 (stereo not given)	1.6	-0.02
Cc1ccc(-n2nnc3c(=O)n(CC(=O)N4CCC(C)CC4)cnc32)cc1	0.94	1.4
Cc1cccc(N2CCN(C(=O)c3cn4ccccc4n3)CC2C)c1 (stereo not given)	0.44	0.09
COc1cc(-c2nc(-c3ccc(NC(=O)c4ccc5c(c4)OCO5)cc3)no2)cc(OC)c1OC	0.98	-0.08
CCCn1c(SC(C)C(=O)N2CCOCC2)nc2ccc(Br)cc2c1=O (stereo not given)	0.24	-1.4
CCOC(=O)Cn1c(C)c(Br)c(COC)c(C#N)c1=O	0.88	-1.1
Cc1ccc(C(=O)N2CCN(C(=O)c3ccc(C)cc3)C2)cc1	0.93	-0.49
CCN1CCN(S(=O)(=O)CC2(C)C3CCC2(C)C(=O)C3Br)CC1 (stereo not given)	2.3	-0.9
NNC(=O)COc1cccc2cccnc12	0.3	0.24
CCCOc1ccc(N2C(=O)CC(N(CCc3ccc(S(N)(=O)=O)cc3)C(C)=O)C2=O)cc1 (stereo not given)	1.3	-2.5
COc1ccc(CSc2nnc(CNS(C)(=O)=O)o2)cc1	1.3	-1.9
O=C(c1ccco1)N1CCN(Cc2ccc(F)cc2Cl)CC1	0.99	0.14
Cc1nn(Cc2c(F)c(F)c(F)c(F)c2F)c(C)c1NC(=O)c1nn(C)cc1[N+](=O)[O-]	0.53	-1.3
COc1ccc(CCNC(=O)C(=O)NCc2ccccc2)cc1OC	2.3	0.08
COc1cccc(OCC(=O)Nc2ccccc2C(N)=O)c1	0.27	-0.41
COc1ccc(NC(=O)c2c(F)c(F)c(F)c(F)c2F)cc1Cl	1.7	-0.23
O=C(/C=C/c1cccc(Cl)c1)Nc1ccncc1	0.17	0.92
COc1ccc(C(=O)Nc2ccc(N3CCN(Cc4ccccc4)CC3)cc2)cc1	0.04	0.45
O=C(NCCN1CCN(Cc2ccccc2)CC1)C1CC(=O)N(C2CCCC2)C1 (stereo not given)	1.7	0.22
COc1ccc(CCNC(=O)COc2cc(C)cc3oc(=O)cc(C)c23)cc1OC	1.6	-0.23
O=C(NCc1cccnc1)c1cn(-c2ccccc2)nc1-c1cccs1	0.96	0.04
O=C(NC1CCCCC1)C1CCCN(S(=O)(=O)c2cccc3cccnc23)C1 (stereo not given)	0.77	-0.02
CC(=O)NC1CC2CCCC(C1)N2CC(=O)Nc1ccccc1 (stereo not given)	0.31	0.59
Cc1cc(N2CCN(c3ccc(F)cc3)CC2)nc2cc(O)ccc12	0.03	-0.5
O=C(NCCCNC(=O)NC1CCCCC1)NC1CCCCC1	0.55	-1.3
CCCOc1ccc(Cn2ccnc2)cc1[N+](=O)[O-]	0.27	0.04
COc1ccc(-c2cccc(NS(=O)(=O)c3cc([N+](=O)[O-])ccc3Cl)c2)nn1	0.8	-0.01
COc1cccc(/C=N/Nc2ccc(Cl)nn2)c1OC	1.2	-0.69
COc1ccc(OC)c(Nc2nc(C3CC3)nc3c2nnn3Cc2ccccc2)c1	0.21	-0.77
CC(C)CC(C(=O)O)N1C(=O)C2C3C=CC(C2C1=O)C1C(=O)N(C(CC(C)C)C(=O)O)C(=O)C31 (stereo not given)	1.7	-0.08
Clc1ccc(-c2nnc(-c3ccccc3Cl)o2)cc1	0.98	-0.39
CN1CCN(C(=O)c2cnn3c(C(F)(F)F)cc(-c4cccs4)nc23)CC1	0.31	0.28
Cc1cccc(C(=O)Nc2ncc(CN3CCOCC3)s2)c1	0.85	0.63
COc1ccc(S(=O)(=O)N(CCc2ccccc2)CC(=O)O)cc1OC	1.9	0.02
Cc1ccc(S(=O)(=O)Nc2nc3ccccc3nc2NCc2ccco2)cc1	1.3	0.02
Cc1ccc(C(=O)NCC(=O)OC(C)C(=O)Nc2ccc(N(C)C)cc2)s1 (stereo not given)	0.26	0
Cc1[nH]c2ccccc2c1/C=N/NC(=O)C1CC1(c1ccccc1)c1ccccc1 (stereo not given)	1.3	-0.05
Cc1cc(-c2cc(-c3ccc(Cl)cc3)on2)nc(NCC2CC2)n1	0.03	0.01
O=C1CC(c2ccccc2)n2nc(NC(=O)c3cccnc3)nc2N1 (stereo not given)	0.41	0.1
O=C(Nc1ccc(-n2ccc(C(F)(F)F)n2)cc1)Nc1cccc(Cl)c1	0.17	-1.7

Compound activity: PubChem BioAssay, Johns Hopkins Ion Channel Center
